NPYLR7 agonist: activates Aedes aegypti NPYLR7 receptor; hit rate 0.15% among 270,000; HEK293T NPYLR7/Galpha15, GCaMP6s calcium fluorescence; activation, % at 10 µM; AID 1259423; in the data active = activation above about 40%;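 also: 0% = vehicle and 100% = reference agonist at the receptor; some compounds past the cut are filed as inactive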
NPYLR7 agonist max-min: second read-out of NPYLR7 agonist, no call of its own (marks repeat the call); activation, %; measured here: Max-Min RFU normalised activation; some inactives read as strong as hits;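 span of the calcium signal over five minutes; 0% = vehicle and 100% = native peptide agonist; compound fluorescence can raise it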
* marks the source's active call; other numbers are inactive results; & = joins results of further samples.

Fields – NPYLR7 agonist, NPYLR7 agonist max-min
CCSc1nnc(NC(=O)CSc2nc3c(c(=O)n2CCOC)SC(C)C3)s1 (centres undefined)
    -4, -5
COc1ccc(CN(Cc2ccc(F)cc2)C(=O)c2ccccc2Cl)cc1OS(=O)(=O)c1ccc(F)cc1
    21, 7
COC(=O)C1=C(C)N=c2sc(=Cc3ccc(Br)cc3)c(=O)n2C1c1cccs1 (centres undefined)
    -5, -12
CC(C)n1cc(C(=O)N2CCN(C(=O)c3ccco3)CC2)c2nn(-c3ccccc3)c(=O)c-2c1
    -5, -11
CO/N=C(\C(=O)N[C@@H]1C(=O)N2C(C(=O)O)=C(COC(C)=O)CS[C@H]12)c1csc(N)n1
    -2&-4, -8&-11
FC(F)(F)c1nc(N2CCOCC2)nc2c1CCCCC2
    1, 1
Oc1c(C=Nc2cccc3nsnc23)sc2ccccc12
    -2, -1
CCn1c(C2CCCN(Cc3cnn4c(C)cc(C)nc34)C2)nn(C)c1=O (centres undefined)
    0, 1
CCN(Cc1noc(C2CCC2)n1)C(=O)c1cnc2ccccc2c1
    -2, -3
COc1ccc(-c2cc(C(=O)O)c3[nH]c(C)nc3n2)c(OC)c1
    0, -1

Fields – NPYLR7 agonist, NPYLR7 agonist max-min
Cc1cc(S(=O)(=O)NCC(=O)N2C[C@H](N(C)C)C[C@H]2CO)ccc1F
    3, 3
c1csc(C2=NN3C(C2)c2ccccc2OC3c2cccs2)c1 (centres undefined)
    3, 2
COc1ccc(C2CC(=O)N(CC(=O)Nc3cc(C)on3)c3ccccc3S2)cc1OC (centres undefined)
    -5, -5
Cc1ccc(NC(=O)CN2CCN(c3cccc(F)c3C#N)CC2)cc1
    0, -6
Cc1cc(C(=O)N2CCC3(CCCCC3)C2)c(C)n1C
    7, 5
Cc1cc(C(=O)NCCN2CCc3ccccc3C2)ccc1O
    -1, -6
Cc1c(C(=O)NNc2ncccn2)cnn1-c1ccc(F)cc1F
    10, 5
CCn1c(SCc2ccc(C(=O)NCCOC)cc2)nnc1-c1ccccc1[N+](=O)[O-]
    10, 8
COCCn1c(C)cn2c3c(=O)n(Cc4ccc(C)cc4)c(=O)n(C)c3nc12
    7, 2
Cc1ccc(F)c(Oc2cc(N3CCN(CC(=O)N4CCCC4)CC3)ncn2)c1
    14, 24

Fields – NPYLR7 agonist, NPYLR7 agonist max-min
CCCc1c(C(=O)OCC)[nH]c2c1C(=O)CC(C)(C)C2
    11, 3
Cc1cc(-c2cccc3ccnn23)cnc1N
    21, 14
N#CC1C(=N)C(C#N)(C#N)C(c2ccc[nH]2)C2CCCC=C12 (centres undefined)
    6, 3
Cc1ccc(C2SCCN2C(=O)Nc2ccc(C)c(C)c2)c(C)c1 (centres undefined)
    -3, 3
CC(C)(C)C(=O)N1CCC(C(=O)Nc2ccccc2-n2ccnc2)CC1
    2, 1
O=S(=O)(N1CCCCC1)N(CCO)c1ccc(Br)cc1
    15, 13
CC(=O)NC1C(=O)N(Cc2ccc(Cl)cc2Cl)c2ccccc21 (centres undefined)
    12, 15
COc1ccc(S(=O)(=O)N2CCN(c3nc4nccc(-c5cc(Cl)ccc5Cl)n4n3)CC2)cc1
    2, 2
Cc1ccc(C2=NN(C(=O)c3ccco3)C(c3ccc4nccnc4c3)C2)cc1 (centres undefined)
    -1, 13
COc1cccc(Nc2nc(NCCCOC(C)C)nc3c2cnn3-c2ccccc2)c1
    0, -1

Fields – NPYLR7 agonist, NPYLR7 agonist max-min
Cc1cccc(C(=O)Nc2ccc(I)cn2)n1
    4, 0
COc1ccc(-c2cc(C(=O)N=Nc3c(O)[nH]c4ccccc34)[nH]n2)cc1
    13, 11
Cc1cccc(Cc2c(C)nc(C)nc2N2CCN(C(=O)Nc3ccc(C)cc3C)CC2)c1
    3, 14
Cc1ccc(S(=O)(=O)N2CCN(Cc3ccncc3)CC2)cc1
    -7, 0
COC(=O)CN(C(=O)c1cc(C)c(F)cc1F)c1cccc(C)n1
    6, 4
O=C(Cc1nc(-c2ccncc2)n[nH]1)NCc1cccnc1
    3, 7
CCCCCSc1oc(-c2ccco2)nc1S(=O)(=O)c1ccc(F)cc1
    -1, -2
CCOC(=O)c1sc(N2C(=O)C(O)=C(C(=O)c3ccco3)C2c2cccc(Cl)c2)nc1C (centres undefined)
    12, 15
CN(Cc1ccccc1)C(=O)CCC1CCN(S(=O)(=O)c2ccccc2Cl)CC1
    11, 8
O=C(CNC(=O)C1c2ccccc2C(=O)N1C1CC1)NC1CCN(C(=O)Nc2ccccc2)CC1 (centres undefined)
    -3, -4

Fields – NPYLR7 agonist, NPYLR7 agonist max-min
O=C(/C=C/c1ccccc1)NCCN1CCn2cc(OCc3ccccc3)c(=O)cc2C1=O
    9, 2
N=c1sc(-c2ccccc2)nn1CCCCS(=O)(=O)O
    4, 2
CC1CCCC(OCC(=O)NCc2ccccc2OCCO)C1 (centres undefined)
    -1, -3
CCOC(=O)c1sc(NC(=O)c2cn(CC(=O)N(C)C)nn2)cc1C
    12, 10
COc1ccc(N2C(=O)CSC2c2ccccc2F)cc1 (centres undefined)
    -6, -13
O=C(c1cccc(Br)c1)N1CCC(n2c(=O)[nH]c3ccccc32)CC1
    -6, -13
CN(CCOc1ccccc1C#N)C1CC2CCC(C1)N2C(=O)OC(C)(C)C (centres undefined)
    -1, -2
Cc1ccc2nc(C)c(NC(=O)c3ccc(S(N)(=O)=O)cc3)c(=O)n2c1
    -3, -2
Nc1nc(SCc2ccc([N+](=O)[O-])cc2)[nH]c(=O)c1NC(=O)c1ccccc1F
    22, 19
O=C(c1ccc(-c2ccco2)cc1)N1CCCC(CO)(CCc2ccccc2)C1 (centres undefined)
    3, 0

As entered above:
NPYLR7 agonist result of `Cc1ccc2nc(C)c(NC(=O)c3ccc(S(N)(=O)=O)cc3)c(=O)n2c1` = -3
NPYLR7 agonist max-min result of `O=C(c1cccc(Br)c1)N1CCC(n2c(=O)[nH]c3ccccc32)CC1` = -13

(listing goes on)
Fields – NPYLR7 agonist, NPYLR7 agonist max-min
CC(NC(=O)c1ccc(C(C)(C)C)cc1)C1CC1 (centres undefined)
    -9, -6
O=C1N=c2ccccc2=C1c1sc(=S)n(NS(=O)(=O)c2ccccc2)c1O
    0, -6
CCc1cn[nH]c1C1CCCN(C(=O)COc2ccc3nncn3n2)C1 (centres undefined)
    1, -2
CCCCCN(Cc1cccn1Cc1cccc(C(F)(F)F)c1)C(=O)CN(CC)C(=O)c1ccc(Cl)cc1
    25, 44
Cc1cccc2sc(N(Cc3cccnc3)C(=O)c3ccc([N+](=O)[O-])o3)nc12
    -26, -23
Cc1c(C(=O)Nc2cccc(C#N)c2)oc2ccc(Br)cc12
    -1, -2
Cc1noc(-c2ccc(N3C[C@H]4CC[C@H]3C4)nc2)n1
    15, 4
CC(C)N(CC(C)(C)O)S(=O)(=O)c1ccc(Cl)nc1
    0, 10
CC(=O)c1cccc(-n2cnnc2CCCO)c1
    27, 15
CCc1c2cccn2cc[n+]1C
    -15, -25

Fields – NPYLR7 agonist, NPYLR7 agonist max-min
Cc1cccc(Nc2nc(N(C)CCO)nc3c2cnn3-c2ccccc2)c1
    1, 0
Cn1ncc(Oc2ccc3c(c2)OCO3)c(Nc2ccc(C(=O)NCc3ccc(F)cc3)cc2)c1=O
    5, 13
Cn1ccnc1SCC(=O)Nc1ccccc1Oc1ccccc1
    4, 3
CCOC(=O)C1CCCN(C(c2ccccc2)C2Sc3nc(CC)nn3C2=O)C1 (centres undefined)
    -1, 12
C=CCn1cc(CN2CCCN(c3ccncc3C)CC2)c(C)n1
    14, 7
Cn1ncc(Oc2ccc(Cl)cc2)c(Nc2cccc(C(=O)NCc3cccnc3)c2)c1=O
    -4, 6
COC(=O)N1CCc2c(sc(NC(=O)c3ccc4ncsc4c3)c2C(N)=O)C1
    5, 2
Cc1c(C(=O)N2CCc3[nH]nc(-c4ccccc4)c3C2)[nH]c2c(F)cccc12
    1, -9
COc1cccc(C(=O)Nc2c3c(nn2CC(=O)NCC2CCCO2)CSC3)c1OC (centres undefined)
    -3, 0
COC(=O)CC(=O)NC1CCN(c2ccccc2C(=O)N2CCOCC2)CC1
    18, 9

Fields – NPYLR7 agonist, NPYLR7 agonist max-min
Cc1ccccc1CSc1nnc(C(C)NC(=O)c2cc(C(F)(F)F)cc(C(F)(F)F)c2)n1-c1ccc([N+](=O)[O-])cc1 (centres undefined)
    2, 2
O=C(CC1C=CCC1)NCC1CCCC1NC(=O)CC1C=CCC1 (centres undefined)
    3, 0
CC(C)N(Cc1ccccc1)C(=O)NCc1nnc2n1CCCC2
    5, 2
CN1C(=O)NC(NC(=O)C(C)(C)C)(C(F)(F)F)C1=O (centres undefined)
    3, 30
CC(C)Oc1ccc(C(=O)NNC(=O)c2sc3ccccc3c2Cl)cc1
    1, 8
O=C(CCC1CCCN(C(=O)c2cnsn2)C1)NCc1ccc(F)c(F)c1 (centres undefined)
    2, -3
CCCCN(CC(=O)Nc1cc(-c2ccccc2)nn1-c1ccc(C)cc1C)C(=O)c1cccc(Br)c1
    19, 27
O=C(CSc1nc2c(cnn2CCO)c(=O)[nH]1)N1CCCc2ccccc21
    3, 2
CCN(CC)C(=O)Oc1ccc2c(ccn2Cc2cccc(F)c2)c1NC(=O)c1ccc(F)cc1C(F)(F)F
    1, 0
COCCN(CC(=O)Nc1cc(C(C)(C)C)nn1-c1ccc(Cl)c(Cl)c1)C(=O)COc1ccc(Cl)cc1
    -2, 3

Fields – NPYLR7 agonist, NPYLR7 agonist max-min
O=C1NC2(CCN(C(=O)C3CCC3)CC2)Nc2ccc(Br)cc21
    5, 10
Cc1cccc(-n2nc(C(C)(C)C)cc2NCc2cccnc2)c1
    3, 4
CN1C(=O)CC(N2CCN(c3cccc(Cl)c3)CC2)C1=O (centres undefined)
    15, 5
CC1(C)O[C@@H]2C[C@@](OCc3ccc(F)cc3)(C(=O)NCC3CCCO3)CC(OCc3c(F)cccc3F)[C@@H]2O1 (some centres undefined)
    24, 10
CCCCC(=O)N(C)c1c(CC)nc2c(OCCn3cccc3)cccn12
    2, 3
Cc1cccc(-n2nc(C(C)(C)C)c3c2N(CC(=O)NCc2cccnc2)C(=O)CSC3c2ccc(F)cc2F)c1C (centres undefined)
    21, 4
CN(CC(=O)Nc1cccc(F)c1)Cc1cc2ccccc2nc1Cl
    2, 0
Cc1nc(CN(C)C(=O)c2cccc(CC3CCNCC3)c2)no1
    4, 3
Cc1ncsc1C(=O)N1CCCC(Nc2ccc(C(C)C)cc2)C1 (centres undefined)
    -2, -5
O=C(COc1ccccc1)NCCn1nc(-c2cccnc2)ccc1=O
    5, -5

Fields – NPYLR7 agonist, NPYLR7 agonist max-min
COc1cc(C=Nn2nnnc2N)ccc1OCC(C)C
    -1, -3
Cc1cccc(C)c1N1C(=O)c2ncccc2C1CCN1CCN(c2ccc(C(=O)O)cc2)CC1 (centres undefined)
    6, 9
COc1ccc(CCN(C)S(=O)(=O)c2cc([N+](=O)[O-])ccc2C)cc1OC
    -6, 9
Cc1ccc(N2C(=O)/C(=C/c3cc(C)n(-c4cccc([N+](=O)[O-])c4)c3C)C(=O)NC2=S)cc1
    22, 18
CCOc1ccc(C(=O)Nc2nnc(SCC(=O)Nc3cc(C)ccc3C)s2)cc1
    4, 7
COCC(=O)N1CCSC12C(=O)N(Cc1cccc(C#N)c1)c1ccc(OC)cc12 (centres undefined)
    9, 7
N#Cc1cc2cc3ccccc3nc2n2c(=O)c3cc(Br)ccc3nc12
    3, 2
c1cncc(CN2CCCC(n3cc(-c4ccc5c(c4)OCCO5)nn3)C2)c1 (centres undefined)
    1, 0
CCn1cc(C(=O)N2CCS(=O)(=O)C(C)(C)C2)cn1
    13, 10
N#Cc1cnc(N2CCN(S(=O)(=O)c3cc(Cl)ccc3Cl)CC2)c(Cl)c1
    3, 0

Fields – NPYLR7 agonist, NPYLR7 agonist max-min
c1ccc2c(C3=NNC(=NC4CCCC4)SC3)cccc2c1
    -18, -22
CC(NC(=O)c1ccc(Br)cc1)c1nnc(SCc2ccccc2)n1-c1ccc(Cl)cc1Cl (centres undefined)
    -3, -3
Cc1ncc(CC(=O)N2CC[C@@H](c3ccc4ccccc4c3)[C@H](O)C2)c(=O)[nH]1
    0, -2
COc1ccc(CN2CCOc3ccc(C(C)(O)COc4ccccc4)cc3C2)c(Cl)c1OC (centres undefined)
    -3, -4
CC(C)CC1NC(=O)c2ccccc2N(CC(=O)N(C)CCc2c[nH]c3ccccc23)C1=O (centres undefined)
    2, 10
COc1ccc(OC)c(S(=O)(=O)Nc2ccc(-c3cn4nc(OC)ccc4n3)cc2)c1
    -13, -17
Cn1cncc1-c1cc(NCCO)nc2[nH]ccc12
    -1, 0
CCCCNc1ccn2nccc2n1
    3, 1
CCOc1ccc(-n2c(SCC(=O)NCCc3ccccc3)nc3c(c2=O)SCC3)cc1
    -1, 67
CCOC(=O)C(NC(=O)Cn1nc(C(F)(F)F)c(Br)c1C)C(=O)OCC
    7, 6

Structures from the list above that contain a CF3 group:
Fields – NPYLR7 agonist, NPYLR7 agonist max-min
FC(F)(F)c1nc(N2CCOCC2)nc2c1CCCCC2
    1, 1
CCCCCN(Cc1cccn1Cc1cccc(C(F)(F)F)c1)C(=O)CN(CC)C(=O)c1ccc(Cl)cc1
    25, 44
Cc1ccccc1CSc1nnc(C(C)NC(=O)c2cc(C(F)(F)F)cc(C(F)(F)F)c2)n1-c1ccc([N+](=O)[O-])cc1 (centres undefined)
    2, 2
CN1C(=O)NC(NC(=O)C(C)(C)C)(C(F)(F)F)C1=O (centres undefined)
    3, 30
CCN(CC)C(=O)Oc1ccc2c(ccn2Cc2cccc(F)c2)c1NC(=O)c1ccc(F)cc1C(F)(F)F
    1, 0
CCOC(=O)C(NC(=O)Cn1nc(C(F)(F)F)c(Br)c1C)C(=O)OCC
    7, 6

Continued.
Fields – NPYLR7 agonist, NPYLR7 agonist max-min
CC1CCc2c(sc3nc(SCC(=O)NC4CC4)n(-c4ccccc4F)c(=O)c23)C1 (centres undefined)
    -3, -5
O=C1/C(=C2\SC(=S)N(c3ccccc3)C2=O)c2ccccc2N1Cc1ccccc1
    -3, -4
CC(C)(C)CCCC(=O)Nc1ncn(Cc2ccccn2)n1
    5, 5
CCn1nnc2c(=O)n(CC(=O)NCCOC)cnc21
    3, 23
COCCN(Cc1cccnc1)C(=O)c1nc(C(C)C)cs1
    0, -2

Screening data as filed in PubChem.

A portion of the library (hit frequency here may not be typical).
